UCH37 DUB inh = blocks the human deubiquitinase UCH37; Q9Y5K5; purified proteasome/UCH37, Ub-AMC cleavage fluorescence; inhibition, % (no concentration beside the values); 330,000 tested, 0.33% active; AID 588478;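 active = mean of two replicates above 20%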;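 note: 0% = compound-free wells with enzyme and 100% = wells lacking proteasome; stock transfer was 100 nL into about 20 µL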
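assay system = human UCH37 enzyme supplied as purified proteasome complex | amount = proteasome at 0.15 nM in the dispensed enzyme solution | schedule = 30 min compound-proteasome preincubation then 25 min substrate reaction, room temperature | measured by = fluorescence, ex 355 nm, em 460 nm | benchmarks = no-proteasome wells (full inhibition) and compound-free wells (no inhibition)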
HNF4A DNA FP = change in binding of human HNF4 alpha to DNA. P41235. HNF4a-FITC DNA binding, fluorescence polarization, 1 h. activity change, % at 10 µM. 360,000 tested, 0.3% active; in the data active = activity change above about 30%, passing the limit was not always enough;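 note: controls were the assay level and a saturating level of protein; the project sought stronger binding though the title names inhibitors; some compounds called inactive have numbers as strong as hits; positive values seem to mean higher polarization but the record does not say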
LANA-H2A inh = blocks KSHV LANA binding to histone H2A/H2B. Q9QR71. cell-free LANA-H2A/H2B peptide, fluorescence polarization. inhibition, % (concentration not given with the values). 320,000 tested, 0.6% active. AID 2629; in the data active = inhibition mostly above about 10%, no sharp cut-off; inactive = mostly below about 6.7%;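 note: stock transfer was 7.5 nL into about 10 µL; 0% = median of vehicle wells and 100% = median of positive control wells; one replicate is shown; the record names a cut of 25% in any replicate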
Target sequence (Q9QR71 whole entry, looked up): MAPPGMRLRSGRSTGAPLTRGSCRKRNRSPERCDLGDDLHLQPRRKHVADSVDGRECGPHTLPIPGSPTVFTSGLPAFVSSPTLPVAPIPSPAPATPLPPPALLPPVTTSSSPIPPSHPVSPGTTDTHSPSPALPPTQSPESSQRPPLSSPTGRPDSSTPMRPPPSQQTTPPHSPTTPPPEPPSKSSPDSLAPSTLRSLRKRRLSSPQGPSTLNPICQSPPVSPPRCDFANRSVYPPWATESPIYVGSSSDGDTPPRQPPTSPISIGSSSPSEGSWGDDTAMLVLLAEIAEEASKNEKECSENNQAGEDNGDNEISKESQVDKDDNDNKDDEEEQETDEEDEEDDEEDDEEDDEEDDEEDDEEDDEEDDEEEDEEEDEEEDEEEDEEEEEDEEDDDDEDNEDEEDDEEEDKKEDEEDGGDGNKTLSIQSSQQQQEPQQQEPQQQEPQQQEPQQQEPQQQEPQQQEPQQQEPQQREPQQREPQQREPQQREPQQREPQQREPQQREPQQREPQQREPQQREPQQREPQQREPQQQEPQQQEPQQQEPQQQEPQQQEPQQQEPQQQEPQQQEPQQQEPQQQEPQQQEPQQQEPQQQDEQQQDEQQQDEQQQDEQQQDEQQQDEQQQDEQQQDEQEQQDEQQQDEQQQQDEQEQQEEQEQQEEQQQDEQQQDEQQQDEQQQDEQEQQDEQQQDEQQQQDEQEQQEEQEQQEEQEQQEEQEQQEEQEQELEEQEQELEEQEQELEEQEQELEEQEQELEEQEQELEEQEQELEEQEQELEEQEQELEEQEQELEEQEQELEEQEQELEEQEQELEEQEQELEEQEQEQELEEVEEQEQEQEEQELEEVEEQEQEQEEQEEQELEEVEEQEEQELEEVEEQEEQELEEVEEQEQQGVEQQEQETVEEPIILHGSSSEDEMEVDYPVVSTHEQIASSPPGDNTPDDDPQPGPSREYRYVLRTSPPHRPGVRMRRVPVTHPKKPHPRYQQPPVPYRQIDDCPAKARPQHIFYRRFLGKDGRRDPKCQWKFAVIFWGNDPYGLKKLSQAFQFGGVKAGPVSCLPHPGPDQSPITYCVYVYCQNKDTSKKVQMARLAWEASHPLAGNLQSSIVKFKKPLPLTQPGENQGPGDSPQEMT
Vif TR-FRET = HIV-1 Vif–A3G interaction blockers – biochemical, TR-FRET, GST-Vif 1-94, biotin-A3G peptide, dose response retest, primary screen (AID 1117319) | TR-FRET GST-Vif / biotin-A3G peptide binding; higher % means a stronger effect; test concentration not given here; strong numbers were not always called active | inhibition, %; hits with a dose series show IC50 in µM | 260,000 tested, 0.57% active;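 active = above the screen mean plus three standard deviations and confirmed in dose response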;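 note: Vif residues 1-94 fused to GST binding biotinylated APOBEC3G peptide 110-148; 0% = full assay without inhibitor and 100% = GST in place of GST-Vif; retest series ran down from 100 µM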
Ecoli growth = inhibitors of Escherichia coli growth. OD600, 23 h; stronger effect = lower value. OD600 absorbance (concentration not given with the values). 330,000 tested, 0.21% active;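 active = OD600 absorbance below the run mean of sample wells minus 3.6 SD, in any replicate, cut at about 0.56 in these data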;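 note: stock transfer was 300 nL into about 60 µL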
Bfl-1 A1 inh = inhibitors of the anti-apoptotic protein A1, read as caspase activation. MEF A1-2A-BIM cells, Caspase-Glo 3/7 luminescence, 3 h; percent of clofoctol response, vehicle zero. caspase activation, % (concentration not given with the values). 330,000 tested, 0.066% active. AID 2462;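 active = over half of replicate activation scores above 10%, or exactly half above 10 with the replicate mean above 10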;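 note: wells of about 30 µL received 50 nL stock; many hits fall short of the cut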
Beta2AR agonist = human beta-2 adrenergic receptor agonism by FAP. P07550. response, % (no concentration beside the values). Am2.2-beta2AR cells, FAP receptor internalization, flow cytometry; reference of the scale not given here. 340,000 tested, 0.43% active;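 active = response above a set limit, near 3 SD of response in nonfluorescent compounds, cut at about 42% in these data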;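 note: stock transfer was 100 nL into about 11 µL; a reference agonist was the positive control; negative values mostly stem from fluorescent compounds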
* marks the source's active call; other numbers are inactive results; i = inactive; nt = not tested or not shown.

SMILES | UCH37 DUB inh | HNF4A DNA FP | LANA-H2A inh | Vif TR-FRET | Ecoli growth | Bfl-1 A1 inh | Beta2AR agonist
O=C(c1ccccc1Sc1cccc2ccccc12)N1CCOCC1 | 4.9 | 0.4 | 2.0 | 0% | 0.75 | 0.8 | -5
Cn1c(=O)cc(OCCCC(=O)NCc2cccnc2)c2ccccc21 | 1.0 | 6.8 | -1.5 | -4% | 0.69 | 0.1 | -1
COc1cccc(CCNS(=O)(=O)CCNC(=O)c2cccc(OC)c2)c1 | 0.1 | 2.2 | -1.7 | -3% | 0.69 | 0.0 | 11
CCOc1cccc(/C=C/c2cc(C(=O)O)c3ccccc3n2)c1OC | 6.1 | 1.9 | -2.0 | 3% | 0.72 | -3.3 | -4
O=C(O)CCC(=O)Nc1cccc(C(=O)Nc2ccc(Br)cc2)c1 | -0.9 | 80* | 4.2 | 3% | 0.68 | -0.5 | 3
COc1ccc(CCn2c(C)ccc2C)cc1OC | nt | nt | -0.1 | 23% | nt | -0.9 | nt
O=C(NCCCN1CCCCC1)C1CC(=O)N(CCc2ccccc2)C1 (stereo unspecified) | -1.2 | 4.7 | 15* | nt | 0.61 | -2.3 | -5
Cc1ccc(-c2cn3cc(C)ccc3n2)cc1 | -16 | -2.0 | -3.2 | -1% | 0.68 | -9.4 | 4
O=C(NC(=S)Nc1ccc(N2CCN(C(=O)c3ccccc3)CC2)cc1)c1cccs1 | nt | 0.3 | 1.5 | 15% | nt | 0.3 | -8
N/C(=N\c1nc2c(c(=O)[nH]1)CCCC2)Nc1ccccc1Sc1ccccc1 | 0.2 | -7.8 | 2.2 | 0% | 0.74 | -0.6 | -14
COc1ccc(S(=O)(=O)NN(C)C(=O)c2nn(-c3ccccc3)ccc2=O)cc1 | 2.2 | 5.4 | -1.1 | 3% | 0.67 | -0.4 | -14
CN(c1ccccc1)S(=O)(=O)c1cccc(C(=O)NC2CC(C)(C)NC(C)(C)C2)c1 | 6.6 | 3.6 | nt | -4% | 0.7 | -0.2 | 13
CC1CCCCN1CCNC(=O)c1cnn2ccccc12 (stereo unspecified) | 0.5 | 5.5 | -1.9 | 8% | 0.76 | 0.9 | -7
N#Cc1ccc(N2CCOCC2)c([N+](=O)[O-])c1 | 1.3 | -0.3 | -0.8 | -1% | 0.65 | -0.5 | -1
CC(C)CC(=O)Nc1ccc(C(=O)COC(=O)C2CC(=O)N(Cc3ccccc3)C2)cc1 (stereo unspecified) | -0.2 | -2.4 | nt | nt | 0.7 | nt | 14
C[C@@H](C(=O)NCc1ccco1)N1C(=O)N2CCc3c([nH]c4ccccc34)[C@@]2(C)C1=O | -1.9 | 2.4 | -0.8 | nt | 0.76 | -0.8 | -1
CCOc1ccc(/C=C2/SC(=S)N(C(C(=O)O)c3ccccc3)C2=O)cc1OCC (stereo unspecified) | 51* | 4.5 | nt | 31% | nt | nt | 0
O=C(CCSc1nccn1Cc1ccccc1)N1CCOCC1 | 1.8 | -1.3 | -2.8 | -6% | 0.72 | -0.1 | 2
CC1(C)CC(=O)C2=C(C1)Nc1ccccc1NC2c1ccc(F)c(F)c1 (stereo unspecified) | 6.7 | -1.4 | -1.4 | nt | 0.68 | -0.1 | -4
COc1cccc(OC)c1C(=O)N1CCN=C1SCc1cccnc1 | 3.8 | -2.5 | 1.3 | -5% | 0.74 | 0.5 | -6
CCOC(=O)c1ccc2c(c1)nc(SC(C)C(=O)NCC1CCCO1)n2CC (stereo unspecified) | 1.4 | 0.2 | 4.6 | -3% | 0.69 | 0.1 | 4
O=C(CNC(=O)c1ccc(Br)o1)Nc1ccccc1 | 3.0 | 2.8 | -6.9 | nt | 0.72 | 1.0 | -5
Cc1cccc(NS(=O)(=O)c2cc(C(=O)N3CCOCC3)ccc2Cl)c1 | 2.9 | 5.5 | 0.0 | 0% | 0.69 | 0.2 | 3
CC(C)CC(c1nnnn1C(C)(C)C)N1CCN(Cc2ccccc2)CC1 (stereo unspecified) | 1.5 | 2.1 | -2.5 | nt | 0.66 | 0.3 | -3
COc1ccc(-n2c(SCc3nnc(-c4ccccc4)o3)nnc2-c2ccccc2)cc1 | 4.3 | -2.2 | 3.6 | -10% | 0.7 | 0.8 | -7
CC(C)CC(=O)N1CCN(S(=O)(=O)c2ccc(F)cc2)CC1 | 0.2 | 2.4 | 0.3 | 1% | 0.57 | -0.8 | -4
COc1ccc(-c2cc(-c3ccc(O)cc3)nc(N)c2C#N)cc1 | -216 | 17 | -3.0 | 5% | 0.74 | 0.0 | 1
O=C(NCCS(=O)(=O)NCc1cccnc1)c1ccccc1 | 2.4 | -1.4 | 2.1 | -4% | 0.64 | 0.2 | 5
O=C(Nc1nc2nccc(-c3ccccc3)n2n1)C(Cl)(Cl)Cl | -86 | -2.0 | -2.5 | 1% | 0.72 | -0.7 | 2
O=[N+]([O-])c1ccc(NC(=S)N2CCc3ccccc3C2)cc1 | 2.9 | 4.0 | 0.6 | 2% | 0.67 | -0.3 | -10

Full records as entered above. Values in the order: UCH37 DUB inh, HNF4A DNA FP, LANA-H2A inh, Vif TR-FRET, Ecoli growth, Bfl-1 A1 inh, Beta2AR agonist
COc1ccc(-n2c(SCc3nnc(-c4ccccc4)o3)nnc2-c2ccccc2)cc1 reads 4.3, -2.2, 3.6, -10%, 0.7, 0.8, -7
CC1(C)CC(=O)C2=C(C1)Nc1ccccc1NC2c1ccc(F)c(F)c1 (stereo unspecified) reads 6.7, -1.4, -1.4, nt, 0.68, -0.1, -4
CCOc1ccc(/C=C2/SC(=S)N(C(C(=O)O)c3ccccc3)C2=O)cc1OCC (stereo unspecified) reads 51*, 4.5, nt, 31%, nt, nt, 0
COc1cccc(OC)c1C(=O)N1CCN=C1SCc1cccnc1 reads 3.8, -2.5, 1.3, -5%, 0.74, 0.5, -6
COc1ccc(-c2cc(-c3ccc(O)cc3)nc(N)c2C#N)cc1 reads -216, 17, -3.0, 5%, 0.74, 0.0, 1

Next part.
SMILES | UCH37 DUB inh | HNF4A DNA FP | LANA-H2A inh | Vif TR-FRET | Ecoli growth | Bfl-1 A1 inh | Beta2AR agonist
CC(C)CN(C(=O)COC(=O)CNC(=O)c1ccc(Cl)cc1)C1CCS(=O)(=O)C1 (stereo unspecified) | 1.9 | 0.3 | -4.1 | 18% | 0.73 | -0.2 | 3
COc1ccc(/C(C#N)=C/c2ccccn2)cc1 | nt | 3.0 | -7.3 | 7% | nt | -5.1 | -6
Cc1ccccc1-n1c(C)cc(/C=C(\C#N)C(=O)NCC2CCCO2)c1C (stereo unspecified) | 3.6 | 0.8 | 0.1 | 3% | 0.71 | 0.3 | -6
COc1ccc(NC(=O)CSc2n[nH]c(=O)n2C2CC2)cc1Cl | 0.0 | -4.4 | nt | 1% | 0.66 | nt | 0
Cc1cccc(N2CCN(C(=O)c3cc(C)oc3C)CC2C)c1 (stereo unspecified) | 3.6 | -2.5 | -3.3 | 22% | 0.65 | 0.7 | -10
C=CCSc1nnc(NC(=O)Cn2cnc3c2c(=O)n(C)c(=O)n3C)s1 | 3.9 | -2.0 | 78* | nt | 0.69 | 0.7 | 1
CC(OC(=O)c1ccccc1NCCO)C(=O)Nc1ccnn1C(C)C (stereo unspecified) | i | 0.4 | -2.4 | -9% | 0.69 | 1.5 | -1
COc1ccc(NC(=O)CN(C)C(=O)c2ccc(NS(=O)(=O)c3ccc(C)c([N+](=O)[O-])c3)cc2)cc1 | 1.4 | 2.3 | -2.0 | 2% | 0.69 | -0.2 | -5
Cc1cccc(C(=O)NCCNC(=O)c2cccnc2)c1 | 4.2 | 0.6 | -2.4 | nt | 0.72 | 1.5 | -4
CC(C)(C)c1ccc(NC(=O)NCc2ccco2)cc1 | 2.0 | 2.0 | 3.4 | -3% | 0.7 | 0.0 | 8
Cn1cc(SCC(=O)Nc2ccc3c(c2)OCCO3)c2ccccc21 | 4.8 | 0.8 | 8.9 | 0% | 0.72 | 0.3 | 0
Oc1ccc(N2CCN(Cc3nc4ccccc4[nH]3)CC2)cc1 | -0.4 | -0.8 | -0.7 | nt | 0.64 | 0.2 | -8
Cc1ccc(S(=O)(=O)c2c(N)n(CCC(C)C)c3nc4ccccc4nc23)cc1 | -125 | -0.5 | 1.5 | -4% | 0.71 | -1.0 | 8
O=C(COC(=O)CCc1c[nH]c2ccccc12)Nc1ccc([N+](=O)[O-])cc1 | 2.1 | 2.8 | 0.5 | 1% | 0.72 | -0.3 | -2
CC(=O)Nc1ccc(SCC(=O)c2cc(C)n(CC(F)(F)F)c2C)cc1 | 4.5 | 4.5 | 0.1 | -2% | 0.74 | 0.5 | -2
CC(CNC(=O)c1cc(COc2c(F)cccc2F)on1)Oc1cccnc1 (stereo unspecified) | -0.1 | -2.7 | -4.8 | nt | 0.69 | 0.0 | -6
CCN(c1ccccc1)S(=O)(=O)c1csc(C(N)=O)c1 | 0.2 | 3.7 | 1.5 | -1% | 0.7 | 0.9 | -7
CCCCOc1ccc(N(CC(=O)NC2CCCCC2)C(=O)c2snc(C(N)=O)c2N)cc1 | -17 | -1.0 | 0.1 | nt | 0.65 | 0.9 | -4
O=C(Nc1cc(SCCO)cc([N+](=O)[O-])c1)c1ccco1 | 5.0 | -2.5 | 0.6 | -7% | 0.72 | -1.4 | 3
CCOc1ccc(NC(=O)CS(=O)CC(=O)Nc2cccnc2)cc1 (stereo unspecified) | 2.6 | -2.3 | -7.2 | nt | 0.67 | -0.6 | 9
CC(OC(=O)c1ccc(S(=O)(=O)N2CCOCC2)cc1)c1ccccc1 (stereo unspecified) | -0.5 | -3.3 | -1.4 | 0% | 0.68 | 0.2 | 2
Cc1ccc(-n2ccnc2SCC(=O)O)c(C)c1 | 2.1 | -0.5 | 2.5 | 0% | 0.68 | -1.6 | 0
CS(=O)(=O)N1CCN(C(=O)c2cc(-c3cccs3)nc3ccccc23)CC1 | -307 | 4.2 | 0.5 | 4% | 0.73 | -0.2 | -5
CCN(CC)CCCNC(=O)c1ccccc1C | 4.1 | -1.1 | -2.5 | 2% | 0.7 | 0.2 | 8
COc1ccc(C(=O)n2cnc3ccccc32)cc1Br | 4.0 | 0.8 | -4.4 | nt | 0.67 | 1.1 | 0
CC(=O)c1ccc(NC(=O)C2CCCN2S(=O)(=O)c2cccc3cccnc23)cc1 (stereo unspecified) | 5.5 | -2.0 | -0.6 | 0% | 0.75 | 0.1 | 5
CCCNC(=O)CCc1c(C)nc2c(c(C)nn2-c2ccc(C)cc2)c1C | -55 | 2.2 | -1.0 | -7% | 0.68 | 0.0 | -14
CCc1ccccc1N1C(=O)C2C3CC(=O)C(c4ccccc43)C2C1=O (stereo unspecified) | 1.2 | 1.6 | 0.1 | -5% | 0.64 | 0.1 | 3
CCOC(=O)c1c(NC(=O)COc2ncnc3sccc23)sc2c1CCC2 | -3.1 | 1.6 | -2.3 | -11% | 0.68 | -0.3 | 5
CS(=O)(=O)N(Cc1ccccc1)c1ccc(C(=O)NCc2cccnc2)cc1 | 4.3 | 3.6 | -3.2 | -5% | 0.73 | -0.1 | -4
COc1ccc(-c2csc(NC(=O)C3=COCCO3)n2)c(OC)c1 | -3.1 | 3.7 | 0.1 | -3% | 0.65 | 0.3 | 1
Cc1c(C(=O)N2CC(C(=O)N3CCCCC3)Oc3ccccc32)oc2ccccc12 (stereo unspecified) | 1.8 | 0.6 | nt | -1% | 0.68 | nt | 4

A different layout for two compounds above.
| smiles | UCH37 DUB inh | HNF4A DNA FP | LANA-H2A inh | Vif TR-FRET | Ecoli growth | Bfl-1 A1 inh | Beta2AR agonist |
| --- | --- | --- | --- | --- | --- | --- | --- |
| CCCCOc1ccc(N(CC(=O)NC2CCCCC2)C(=O)c2snc(C(N)=O)c2N)cc1 | -17 | -1.0 | 0.1 | nt | 0.65 | 0.9 | -4 |
| O=C(CCSc1nccn1Cc1ccccc1)N1CCOCC1 | 1.8 | -1.3 | -2.8 | -6% | 0.72 | -0.1 | 2 |

Compound activity deposited in PubChem by several laboratories.
